N370S GC = qHTS Assay for Inhibitors and Activators of N370S glucocerebrosidase as a Potential Chaperone Treatment of Gaucher Disease; Potency, µM (highest dose often 59.4 µM), for the others: top-dose activity change, negative = inhibition, most hits filed as inhibitors; 0.092% of 330,000 active; Lysosomal acid glucosylceramidase (Homo sapiens), P04062; N370S GC spleen homogenate, 4MU-glucoside fluorescence; AID 2101, 2009;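 further: 0% = full enzyme activity and -100% = no enzyme basal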
GCN5L2 inh = qHTS Assay for Inhibitors of GCN5L2; Histone acetyltransferase KAT2A (Homo sapiens), Q92830; GCN5L2 HAT assay, ThioGlo1 CoA-SH fluorescence; 0.21% of 390,000 active; Potency, µM (top dose mostly 58.9 µM), for inactives: at the top dose activity change, negative = inhibition, usual class: inhibitors
Target sequence (Q92830 whole entry, looked up): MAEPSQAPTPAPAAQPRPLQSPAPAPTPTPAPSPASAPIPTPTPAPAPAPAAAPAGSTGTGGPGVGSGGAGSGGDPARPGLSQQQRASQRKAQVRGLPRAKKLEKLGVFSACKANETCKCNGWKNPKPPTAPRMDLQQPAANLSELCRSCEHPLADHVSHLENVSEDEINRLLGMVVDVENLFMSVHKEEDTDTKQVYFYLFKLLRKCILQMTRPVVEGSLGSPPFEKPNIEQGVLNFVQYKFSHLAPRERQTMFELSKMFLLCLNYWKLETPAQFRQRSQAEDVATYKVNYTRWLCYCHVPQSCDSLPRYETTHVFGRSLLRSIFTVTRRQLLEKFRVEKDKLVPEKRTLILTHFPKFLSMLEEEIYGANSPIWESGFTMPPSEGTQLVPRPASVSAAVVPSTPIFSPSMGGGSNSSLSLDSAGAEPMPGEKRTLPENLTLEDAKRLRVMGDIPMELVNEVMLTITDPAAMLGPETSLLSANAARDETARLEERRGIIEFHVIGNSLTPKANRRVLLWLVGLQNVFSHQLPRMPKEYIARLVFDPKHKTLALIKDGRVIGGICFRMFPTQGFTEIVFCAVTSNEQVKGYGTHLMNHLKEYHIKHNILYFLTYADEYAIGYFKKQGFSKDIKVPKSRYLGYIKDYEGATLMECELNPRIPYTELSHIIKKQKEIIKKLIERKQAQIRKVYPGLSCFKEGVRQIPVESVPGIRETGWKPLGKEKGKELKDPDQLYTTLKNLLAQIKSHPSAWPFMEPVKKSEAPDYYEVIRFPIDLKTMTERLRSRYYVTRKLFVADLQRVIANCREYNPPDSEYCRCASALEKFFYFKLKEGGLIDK
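ThioGlo1-coupled HAT assay: 20nM GCN5L2, 70uM acetyl-CoA, 75uM H3(1-25) peptide, pH 7.5. Fluorescence read at 340/540nm at start and after 20 min at room temperature.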
Starred values were filed as active, the others as inactive; u = inconclusive; x = not tested or not shown; & = joins results of further samples. The call rests on the fitted dose curve; in most records, active means well fitted curve in the direction sought with a large enough effect; inconclusive means small, poorly fitted or top-dose-only effect, or another doubt; inactive means no such curve, though single readings can be large; an effect the other way counts as inactive or inconclusive. Unless noted, on the % scale 0 is the no-effect control and ±100 the full control effect; potency means the concentration at half of the fitted maximal effect.

N370S GC	GCN5L2 inh	mol
7.4%	16.4%	CCOc1cc(NC(=S)NCc2ccco2)c(OCC)cc1NC(=O)C1CC1
1.2%	-12.2%	CCOCc1nnc(NC(=O)CSc2ccccc2)s1
-2.4%	-8.8%	CCOC(=O)C1=C(C)NC2=C(C(=O)CCC2)C1c1ccc(N(C)C)cc1 (stereo not given)
-8.1%	-8.4%	O=C(CN1C(=O)NC2(CCCC2)C1=O)Nc1cc(S(=O)(=O)N2CCOCC2)ccc1OCC(F)(F)F
x	-2.3%	CC(=O)Nc1ccc(NC(=O)C2CCN(c3cnccn3)CC2)cc1
0.4%	-6.6%	O=C(CNS(=O)(=O)c1ccccc1)OCC(=O)c1ccc([N+](=O)[O-])cc1
u	0.6%	CC(=O)N1CCN(CC(=O)Nc2ccc3c(c2)CCC3)CC1
x	-4.7%	COc1ccc(S(=O)(=O)N(C)C[C@H]2Oc3ccc(NS(=O)(=O)c4cccs4)cc3CC(=O)N([C@H](C)CO)C[C@H]2C)cc1
1.5%	0.1%	CCOc1ccc(OCc2ccc(C(=O)N3N=C(C(F)F)CC3(O)C(F)F)o2)cc1 (stereo not given)
-7.3%	-3.8%&-8.2%	CCN(CC)C(=O)COc1ccc(-c2nnc(Nc3ccc(OC)c(C(=O)NC)c3)c3ccccc23)cc1
2.2%	-5.4%	Cc1ccc(S(=O)(=O)N2CCCCC2)cc1NC(=O)C1CC(=O)N(c2ccc3c(c2)OCCO3)C1 (stereo not given)
-7.7%	4.4%	CCCS(=O)(=O)c1c(S(=O)(=O)CCC)c2c(N)cccn2c1C(=O)c1ccc(OC)cc1
-7.8%	-0.3%	CC(Oc1ccc(-c2ccccc2)cc1)C(=O)N/N=C/c1cccnc1 (stereo not given)
-5.9%	-6.7%	O=C(Nc1ccc(F)cc1)c1ccc(S(=O)(=O)N2CCOCC2)o1
4.2%	-19.9%	C=Cc1ccc(Cn2c(=O)n(C)c(=O)c3sccc32)cc1
x	-20.6%	COc1cccc(CNC(=O)CSc2nc(=O)[nH]c3c2CCC3)c1
1.1%	-4.8%	O=C(O)c1ccc(S(=O)(=O)N2CCCC2)cc1
x	-9.5%	Cc1ccc(C)c(NS(=O)(=O)c2cc3c4c(c2)C(C)C(=O)N4CCC3)c1 (stereo not given)
16.8%	1.3%	Cc1sc2nc(SC(C)C)nc(N)c2c1C
1.0%	-0.6%	COc1cc(OC)c(C(=O)OCC(=O)Nc2ccccc2Cl)cc1OC
9.9%	0.9%	COc1ccccc1NS(=O)(=O)c1cc(NC(=O)Cn2cnc3c2c(=O)n(C)c(=O)n3C)ccc1C
1.7%	-4.8%	CCN(CC)S(=O)(=O)c1ccc2c(c1)oc(=O)n2CC(=O)N(C)C1CCCCC1
0.1%	-0.7%	CCCCOC(=O)C1C2C=CC3(CN(CCc4ccccc4)C(=O)C13)O2 (stereo not given)
3.6%	1.8%	COc1ccc(OC)c(NC(=O)CSc2nnc(-c3ccco3)n2-c2ccc(C(=O)O)cc2)c1
-10.8%	-1.0%	COc1ccccc1N(C)S(=O)(=O)c1ccc(C(=O)Nc2ccc(C)cc2C)cc1
x	0.0%	CCn1cc(C(=O)NCc2ccc(Cl)cc2)c(=O)c2cc(S(=O)(=O)N3CCc4ccccc4C3)ccc21
-7.8%	-1.5%	NNC(=O)c1[nH]c2ccc(Cl)cc2c1-c1ccccc1
3.4%	18.9%	CCCC(=O)NCCc1nc2ccccc2n1CC(=O)c1ccccc1
1.8%	-0.8%	O=C1c2ccccc2S(=O)(=O)N1Cc1cc(=O)n2ccsc2n1
4.8%	23.6%	Cc1c(-c2ccccc2)oc2c(C(=O)N3CCN(c4ccc([N+](=O)[O-])cc4)CC3)cccc2c1=O
-4.5%	-27.4%	O=C(CCN1C(=O)c2ccccc2S1(=O)=O)NCc1ccccc1Cl
2.6%	-5.8%	COc1nc(OC)nc(N2CCC(C(=O)Nc3cccc4ccccc34)CC2)n1
-6.8%	-16.4%	COCc1ccc(C(=O)N2CCCC(CNC(=O)c3ccc(F)cc3)C2)o1 (stereo not given)
-0.6%	-0.6%	COc1ccc(Cl)cc1NC(=O)C/C(C)=N/NC(=O)CCc1ccccc1
4.2%	-10.1%	COc1c(C(C)C)cc(NC(C)=O)cc1C(C)C
-2.3%	-8.5%&-5.8%	CCOc1ccc(CCNC(=O)CN2C(=O)c3cccnc3Oc3ccc(C)cc32)cc1OCC
-15.7%	-4.2%	COC(=O)c1nn(-c2ccc(OC)cc2)c(=O)cc1Sc1ccc(C)cc1
9.8%	-2.4%	N#CCCN(C(=O)COC(=O)c1ccc(S(=O)(=O)Nc2ccccc2)cc1)c1ccccc1
x	-8.8%	Cc1ccc(S(=O)(=O)N2CCN(C(=O)COC(=O)CNC(=O)c3ccc(C(C)(C)C)cc3)CC2)c(C)c1
3.4%	u	CCOc1cc(N)c(Cl)cc1C(=O)NCC1CN(Cc2ccc(F)cc2)CCO1 (stereo not given)
-1.6%	1.4%	Cc1nc(SCC(=O)N2CCC(C(N)=O)CC2)n[nH]1
x	-8.8%	Cc1ccc(Cl)cc1NC(=O)CN1C(=O)COc2ccc(S(=O)(=O)N3CCCCCC3)cc21
0.5%	u	Cc1ccccc1-c1nc2ccccc2o1
8.2%	-11.4%&-7.9%	COc1cc(NC(=O)CCCSc2nc(-c3ccco3)cc(C(F)(F)F)n2)cc(OC)c1OC
-2.5%	-4.2%	CSCCC(=O)N1CCCC(CNC(=O)c2ccccc2Cl)C1 (stereo not given)
3.0%	-3.1%	Cc1cccc(CSc2nnc(-c3cnccn3)n2C)c1
u	-19.3%	O=C(NCc1ccco1)c1ccc2c(c1)N(Cc1ccc(Cl)cc1)CCS2
6.7%	2.3%	CC1(C)Cc2c(c(-c3ccccc3Cl)[nH]c(=O)c2C#N)CO1
-5.7%	0.2%	Cc1cc(F)ccc1NS(=O)(=O)c1c(C(=O)N2CCOCC2)c(C)n(C)c1C
-0.6%	-11.8%	COc1ccc(N2CCN(C(=O)COC(=O)COc3cc(C)cc(C)c3)CC2)cc1
-8.2%	-4.8%	c1ccc(C2NCCc3ccccc32)cc1 (stereo not given)
x	-6.7%	COc1cc(OC)cc(C(=O)NC(C(=O)Nc2ccc3nc(C)sc3c2)C(C)C)c1 (stereo not given)
-6.8%	-2.4%	CN1CCN(c2ccc([N+](=O)[O-])cc2C(=O)N2CCCCC2)CC1
-3.2%	-2.7%	Cc1nc(Cl)sc1C(=O)NC(C)c1ccc(Cl)cc1 (stereo not given)
0.1%	-5.2%	Cc1cc(=O)oc2cc(OCC(=O)NC3CC(C)(C)NC(C)(C)C3)ccc12
-9.8%	-5.9%	COc1ccc(/C=C/C(=O)c2ccc(Cl)s2)cc1O
12.3%	-13.8%	Cc1nn(C)c(C)c1N1C(=O)c2cccc3c(Br)ccc(c23)C1=O
x	-0.2%	CC[C@@H]1CCCCc2ccccc2[C@H](C(=O)C[C@H](O)CC(C)=O)OC1=O
4.9%	-2.1%	CN1C(=O)CC(C(=O)O)SC1=Nc1cc(Cl)c(O)c(Cl)c1 (stereo not given)
-18.2%	-1.3%	O=c1ccc2ccc(OCc3nnc(-c4ccccc4Br)o3)cc2o1

Arranged by value in N370S GC (largest number first): 3 of the compounds above.
N370S GC	GCN5L2 inh	mol
1.1%	-4.8%	O=C(O)c1ccc(S(=O)(=O)N2CCCC2)cc1
-0.6%	-11.8%	COc1ccc(N2CCN(C(=O)COC(=O)COc3cc(C)cc(C)c3)CC2)cc1
-7.8%	-1.5%	NNC(=O)c1[nH]c2ccc(Cl)cc2c1-c1ccccc1

(continued)
N370S GC	GCN5L2 inh	mol
-6.6%	-1.1%	COc1ccccc1N1CCN(C(c2cccs2)C(C)NC(=O)C(=O)N2CCOCC2)CC1 (stereo not given)
1.1%	-13.7%	COC(=O)c1ccc(NC(=O)C2CCCCC2C(=O)O)cc1 (stereo not given)
-0.3%	-7.4%	C/C(=N\Nc1c(Cl)c(Cl)nc(C(=O)O)c1Cl)c1ccc(O)cc1
-4.3%	-3.2%	CCC(C)NC(=O)CN1C(=O)c2cccc3cccc1c23 (stereo not given)
u	-4.1%	CN(C(=O)c1ccc(COc2ccccc2Cl)o1)c1ccccc1
x	-5.3%	CC(C)(C)C(=O)CSc1ccc(S(=O)(=O)N2CCCC2)cn1
7.5%	-3.8%	CCOC(=O)C1=C(C)Nc2nc3ccccc3n2C1c1cccs1 (stereo not given)
8.6%	-7.7%	Cc1cc2c(ncn2C)c(NS(=O)(=O)c2cc(Cl)ccc2Cl)c1C
-5.1%	-11.2%	CCCCNc1ccc(C(=O)Nc2cccc(C)n2)cc1[N+](=O)[O-]
2.8%	-8.0%	O=C(OCc1nnc(-c2ccccc2)o1)C1CC(=O)N(Cc2ccco2)C1 (stereo not given)
-11.8%	-1.2%	O=C(Nc1ccon1)c1ccccc1F
-3.3%	-19.3%	Cc1nn2c(N3CCOCC3)cc(C(C)(C)C)nc2c1-c1ccc(Cl)cc1
-11.2%	-8.2%	O=C(Nc1ccc2oc(=O)ccc2c1)c1cc([N+](=O)[O-])ccc1N1CCOCC1
x	-0.8%	O=C(COC(=O)c1ccc[n+]([O-])c1)Nc1ccc([N+](=O)[O-])cc1Cl
3.1%	-1.9%	Cc1ccc(-n2c(C)cc3c2CC(C)(C)CC3=O)cc1C
2.1%	-8.3%	Cc1cc(NC(=O)C2CC2)ncc1NC(=O)c1ccccn1
0.0%	-21.4%	Cc1cccc(C(=O)N[C@H](C(=O)OCC(=O)NC(=O)c2cccn2C)C(C)C)c1
-2.7%	-1.0%	CCC(C)(C)n1nnnc1C(c1ccc(F)cc1)N1CCN(C(=O)c2ccco2)CC1 (stereo not given)
-1.3%	-3.1%	Cn1cc(CCNC(=O)CC2C(=O)NCCN2CC(c2ccccc2)c2ccccc2)cn1 (stereo not given)
-25.5%	1.5%	COc1ccc(S(=O)(=O)N2CCC(C(=O)N(CC(C)C)C3CCS(=O)(=O)C3)CC2)cc1OC (stereo not given)
-5.4%	-22.8%	O=C(NCC(=O)N1CCN(S(=O)(=O)c2ccccc2F)CC1)c1ccc(Br)o1
1.0%	-5.4%	CCN(C(=O)CN1CCN(c2ccccc2OC)CC1)c1c(N)n(Cc2ccccc2)c(=O)[nH]c1=O
-6.0%	-4.3%	CCCn1cc(CN2CCC(n3nccc3NC(=O)C(OC)c3ccccc3)CC2)c(C)n1 (stereo not given)
-3.9%	-1.8%	CCOc1ccc(NC(=O)CCc2ccc(C)o2)cc1
-4.2%	-1.9%	CCN1CCN(CCOc2cccc(Oc3ccccc3)c2)CC1
2.1%	-26.8%	Cc1ccccc1N1CCN(C2CCCN(C(=O)c3ocnc3C)C2)CC1 (stereo not given)
2.9%	-2.5%	CCOC(=O)c1cc2c(ccn2C)n1CC(=O)N(C)C
15.8%	-1.6%	O=C(c1ccc(Cl)s1)N1CCc2ccccc21
-12.4%	-9.6%	Cc1ccc(CS(=O)(=O)Cc2ccc(C(=O)NCCc3ccccc3)o2)cc1
-2.6%	-10.0%	O=C(c1cccc(F)c1)N1CCN(Cc2cccc(Br)c2)CC1
u	-3.6%	COC(=O)CSc1ccc2c(N)c(C(=O)OC)sc2c1
0.5%	-9.7%	CCOc1ccc(/C=C(/NC(=O)c2ccccc2Cl)C(=O)O)cc1
-9.9%	0.5%	CCN(C(=O)Cc1c(C(=O)O)n(CC)c2ccccc12)c1ccccc1C
-3.0%	-6.6%	O=C(Nc1nncs1)c1cccc(S(=O)(=O)N2CCCC2)c1
14.7%	-9.6%	O=C(NCCc1c[nH]c2ccccc12)Nc1cccc2ccccc12
-7.1%	-2.8%	COc1cccc(-n2c(CN3CCN(c4ccc(C)cc4)C(C)C3)nc3ccc([N+](=O)[O-])cc3c2=O)c1 (stereo not given)

Entries listed so far that have a tert-butyl group (three):
N370S GC	GCN5L2 inh	mol
x	-8.8%	Cc1ccc(S(=O)(=O)N2CCN(C(=O)COC(=O)CNC(=O)c3ccc(C(C)(C)C)cc3)CC2)c(C)c1
x	-5.3%	CC(C)(C)C(=O)CSc1ccc(S(=O)(=O)N2CCCC2)cn1
-3.3%	-19.3%	Cc1nn2c(N3CCOCC3)cc(C(C)(C)C)nc2c1-c1ccc(Cl)cc1

Other records follow:
N370S GC	GCN5L2 inh	mol
-5.0%	-22.8%	O=C(Nc1ccc2c(c1)OCO2)C(=O)c1c[nH]c2ccccc12
15.6%	-8.9%	COc1ccc(Nc2ccc(S(=O)(=O)N3CCCCC3)cc2[N+](=O)[O-])cc1
4.9%	-6.6%	O=C(NCCN1C(=O)C2C3C=CC(C3)C2C1=O)Nc1ccc(Br)cc1 (stereo not given)
x	2.0%	CCN(C(=O)CN1C(=O)NC2(CCc3ccccc32)C1=O)C1CCS(=O)(=O)C1 (stereo not given)
-1.0%	-1.0%	CC(=O)NCCC1CCCCN1C(=O)c1cc(COc2cc(C)ccc2C)on1 (stereo not given)
9.9%	-8.2%	CC(=O)N(c1ccccc1)c1nnc(-c2cnc(C)cn2)s1
2.4%	10.1%	O=c1[nH]c(CSc2nc3ccccc3[nH]2)nc2c1cnn2-c1ccccc1
0.1%	x	COC(=O)/C(=C\Nc1ccc(OC)cc1)NC(=O)c1ccc(Cl)cc1Cl
-2.9%	-6.0%	Cn1cccc1C(=O)Nc1nc(-c2ccccn2)cs1
-15.5%	u	Cc1noc(C)c1CSCC(=O)Nc1nc2ccc(S(C)(=O)=O)cc2s1
-0.3%	-0.7%	COc1cc(NC(=O)c2cccs2)ccc1NC(=O)c1cc2ccccc2o1

These rows are one share of the data; most or all hits stand in other tables.
